# Screens: PubChem BioAssay, Johns Hopkins Ion Channel Center
# KCNQ2 inh: KCNQ2 potassium channel inhibitors, primary screen, cell-based, CHO-K1, FluxOR thallium flux, B-score (AID 2156). B-score at 10 µM. 20 min; active compounds read low; only compounds with negative scores are shown here; some inactives read as strong as hits. hit rate 1.1% among 310,000;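 active means fluorescence ratio B-score at most minus 3 library SDs, with starting brightness B-score within 2 library SDs, cut at about -5.5 in these data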
# Target sequence (O88943 whole entry, looked up): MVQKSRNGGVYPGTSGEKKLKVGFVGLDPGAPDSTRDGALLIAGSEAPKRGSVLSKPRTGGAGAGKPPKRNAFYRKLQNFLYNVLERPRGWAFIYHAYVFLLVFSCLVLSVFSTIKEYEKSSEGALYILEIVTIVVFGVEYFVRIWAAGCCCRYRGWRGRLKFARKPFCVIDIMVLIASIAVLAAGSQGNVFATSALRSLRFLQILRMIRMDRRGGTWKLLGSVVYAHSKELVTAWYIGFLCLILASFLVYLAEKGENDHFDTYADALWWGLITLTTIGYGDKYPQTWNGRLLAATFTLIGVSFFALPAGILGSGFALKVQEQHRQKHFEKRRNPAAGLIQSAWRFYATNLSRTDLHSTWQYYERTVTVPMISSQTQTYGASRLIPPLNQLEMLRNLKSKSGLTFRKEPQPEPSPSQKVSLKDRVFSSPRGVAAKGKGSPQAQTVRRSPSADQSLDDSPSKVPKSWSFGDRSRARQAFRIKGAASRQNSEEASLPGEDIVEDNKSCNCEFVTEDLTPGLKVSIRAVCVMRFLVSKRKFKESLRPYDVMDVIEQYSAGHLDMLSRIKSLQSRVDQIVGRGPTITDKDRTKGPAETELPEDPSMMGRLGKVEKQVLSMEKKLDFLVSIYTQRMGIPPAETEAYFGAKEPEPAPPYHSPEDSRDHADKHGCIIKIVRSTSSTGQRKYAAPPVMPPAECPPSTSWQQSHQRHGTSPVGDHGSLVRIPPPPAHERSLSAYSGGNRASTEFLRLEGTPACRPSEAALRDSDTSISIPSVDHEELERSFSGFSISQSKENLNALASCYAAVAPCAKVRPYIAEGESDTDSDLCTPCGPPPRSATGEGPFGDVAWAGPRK
# KCNQ2 inh baseline: also measured in KCNQ2 inh; calls as there; B-score; measured here: initial fluorescence intensity artifact check;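 brightness before thallium and not channel activity; 0 = typical well and far values either way flag optical interference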
# * marks the source's active call; other numbers are inactive results; i = inactive. The list is partial. The share of hits here may be higher or lower than overall.
SMILES,KCNQ2 inh,KCNQ2 inh baseline
O=C(CCc1nnc(CCCCc2ccccc2)o1)N(CCO)Cc1ccccc1,i,-2.2
CN(C1CCCCC1)S(=O)(=O)c1ccc(S(=O)(=O)N(CC(=O)Nc2ccccc2)C2CC2)cc1,i,0.03
COc1ccc(C(O)Cc2nccn2C)cc1 (configuration not stated),i,-0.26
COC(=O)N/N=C/c1cc(Br)ccc1O,i,-0.98
COc1ccc(CNC(=O)C(c2ccco2)N(C(=O)CNS(=O)(=O)c2ccccc2)c2ccccc2C)cc1 (configuration not stated),i,-3.23
CC(Nc1nc(N2CCCC2)nc2ccccc12)c1ccccc1 (configuration not stated),i,0.2
O=c1c2ccccc2nc(-c2ccco2)n1CCCn1ccnc1,i,8
COc1cccc(-c2nnc(NC(=O)CCS(=O)(=O)c3ccc(C)cc3)o2)c1,i,-0.18
CCn1ccnc1CN1CCCC(C(=O)c2ccc3c4c(cccc24)CC3)C1 (configuration not stated),i,-0.19
CC(C)(C)n1nnnc1CN1CCN(C(c2ccccc2)c2ccccc2)CC1,i,0.14
COc1ccc(-c2cc(C(=O)NCCCN3CCOCC3)no2)cc1,i,-0.63
CC(C)(C)C(=O)Nc1sc(-c2ccccc2)cc1C(=O)O,i,-0.39
CC1CCC(NC(=O)CN2C(=O)c3cccnc3Oc3ccc(Cl)cc32)CC1 (configuration not stated),i,0.22
COc1cc(N=Nc2c(O)c3ccccc3[nH]c2=O)c(OC)cc1N=Nc1ccccc1,i,-1.24
Cc1ccc(CCNC(=O)CS(=O)Cc2nc(-c3ccccc3F)oc2C)cc1 (configuration not stated),i,0.56
CCC(CC)CN1C(Nc2ccccc2)=NC[C@@H]1CC(C)C,i,2.94
CC(C(=O)N1CCN(C2c3ccccc3-c3ccccc32)CC1)N1C(=O)c2ccccc2C1=O (configuration not stated),i,-0.75
COCCn1c(SCC(=O)N2CCCCCC2)nnc1-c1ccco1,i,-1.38
CNC(=O)COc1ccc2oc3c(c2c1)CCCC3,i,-0.59
O=C(N/C(=C\c1ccc2c(c1)OCO2)C(=O)N1CCOCC1)c1ccccc1Br,i,-0.06
CCC(=O)NC(=S)NNC(=O)c1ccc([N+](=O)[O-])cc1,i,1.11
Cc1cc(C)cc(NC(=O)CN(C)S(=O)(=O)c2cccc3nsnc23)c1,i,0.6
CCn1c(C2CC(=O)N(c3ccc(C)c(C)c3)C2)nc2ccccc21 (configuration not stated),i,-0.18
O=C(c1ccccc1Br)N1CCN(c2ncccn2)CC1,i,1.77
c1ccc(CN2CCC(N=C3NN=C(c4ccc5c(c4)OCCO5)CS3)CC2)cc1,i,0.47
COc1cccc(/C=N/Nc2cc(-n3nc(C)cc3-c3ccccc3)ncn2)c1O,i,1.51
O=C(NC1CC1)c1ccc(-n2cccc2)cc1,i,1.77
O=C(c1ccc(Cl)cc1)C1CCN(Cc2ccccc2)CC1,i,-0.97
CCOC(=O)N1CCN(C(=O)COc2ccccc2[N+](=O)[O-])CC1,i,0.24
CC(=O)N1CCN(C(=O)c2ccc(Cl)c(NC(=O)c3cccs3)c2)CC1,i,-0.04

# Quoted at random: 6 compounds from above.
SMILES,KCNQ2 inh,KCNQ2 inh baseline
CC(=O)N1CCN(C(=O)c2ccc(Cl)c(NC(=O)c3cccs3)c2)CC1,i,-0.04
CCC(=O)NC(=S)NNC(=O)c1ccc([N+](=O)[O-])cc1,i,1.11
O=C(N/C(=C\c1ccc2c(c1)OCO2)C(=O)N1CCOCC1)c1ccccc1Br,i,-0.06
COCCn1c(SCC(=O)N2CCCCCC2)nnc1-c1ccco1,i,-1.38
c1ccc(CN2CCC(N=C3NN=C(c4ccc5c(c4)OCCO5)CS3)CC2)cc1,i,0.47
CCC(CC)CN1C(Nc2ccccc2)=NC[C@@H]1CC(C)C,i,2.94

# (continued)
SMILES,KCNQ2 inh,KCNQ2 inh baseline
CC12CN(Cc3ccccc3)CC(C)(CN(Cc3ccccc3)C1)C2=NO,i,-0.05
CCCCCOc1ccc(C(=O)NCC2(c3ccccc3)CCOCC2)cc1,i,-1.48
O=C(c1cnn2ccccc12)N(Cc1ccco1)C1CCCC1,i,-1.2
N#Cc1ccc2ccn(CC(=O)NCc3ccco3)c2c1,i,0.01
CC(C)(/C=N/O)/[N+]([O-])=C/c1ccccc1,i,1.6
COc1ccc(NC(=O)CSc2nc3ccccc3nc2N2CCOCC2)cc1,i,0.37
CCCOc1cccc(C(=O)NC(=S)Nc2ccc(N3CCN(C)CC3)cc2)c1,i,-0.64
CCOc1ccc(CCNC(=O)COC(=O)CNC(=O)c2ccc(Br)o2)cc1OCC,i,0.32
CNC(=O)c1c(NC(=O)CCS(=O)(=O)c2ccc(Cl)cc2)sc2c1CCN(C(=O)OC)C2,i,0.29
O=C(CCN1CCN(c2ccccc2F)CC1)Nc1ccccc1F,i,-0.95
COc1ccc(S(=O)(=O)N2CCC(N3CCN(Cc4ccccc4)CC3)CC2)cc1,i,0.1
COc1ccc(CCCc2nnc(SCC(=O)Nc3ccc(OC)cc3)o2)cc1,i,-1.65
CCCOc1ccccc1C1NC(=O)NC(C)=C1C(=O)OCCOCC (configuration not stated),i,1.43
O=C(Nc1nc(C2C3CC4CC(C3)CC2C4)cs1)c1cc2cc([N+](=O)[O-])ccc2oc1=O (configuration not stated),i,1.24
CCS(=O)(=O)c1nc(S(=O)(=O)c2ccc(Cl)cc2)c(NCCN2CCOCC2)s1,i,-0.3
O=C(Cn1cc2c(n1)CCCCC2)Nc1ccccc1Br,i,-0.67
CCCCN(C(=O)c1ccc2c(c1)OCO2)c1ccccc1,i,0.82
Cc1ccc(C2=NN(C(=O)CCC(=O)O)C(c3ccc4c(c3)OCO4)C2)cc1 (configuration not stated),i,0.65
Cc1cc(C)n(CC(=O)N2c3ccccc3Sc3ccccc32)n1,i,-0.76
COc1ccc(NC(=O)COC(=O)Cc2c[nH]c3ccccc23)cc1OC,i,0.67
CCc1ccccc1NC(=O)COc1ccc(C(=S)N2CCCC2)cc1,i,0.66
Cc1ccc(-c2cc(C(F)(F)F)n3ncc(C(=O)N4CCCc5ccccc54)c3n2)cc1,i,1.67
CC(C)N(CCO)C(=O)CCc1nnc(Cc2cccc(C(F)(F)F)c2)o1,i,-0.99
C/C(=N\NC(=O)C1CCCN(S(=O)(=O)c2ccccc2)C1)c1cccnc1 (configuration not stated),i,-0.12
O=C(Nc1ccccc1N1CCCCC1)c1ccccc1F,i,1.81
CCOc1ccc(S(=O)(=O)N2CCN(C(=O)c3cccn3C)CC2)cc1,i,1.74
COc1cccc(C(=O)NC(=S)Nc2ccc3oc(=O)ccc3c2)c1,i,0.78
C/C(=N\O)c1ccccc1C(=O)O,i,0.03
Cc1cccc(-c2nnc(SCc3nc4ccccc4[nH]3)n2Cc2ccco2)c1,i,0.02
Cc1ccccc1CNC(=O)c1ccc2nc(N3CCOCC3)sc2c1,i,3.18
Cc1ccccc1OCCN(C#N)c1nc(N(C)C)nc(N(C)C)n1,i,0.19
N#Cc1c(NC(=O)CSc2n[nH]c(Cc3ccccc3)n2)oc(-c2ccccc2)c1-c1ccccc1,i,0.73
Cc1cc(C(=O)N2CCN(c3ccccc3O)CC2)c(C)o1,i,-0.36
Cc1cc(C(=O)Nc2cc(Br)ccc2O)on1,i,1.8
Cc1ccc(OCc2ccoc2C(=O)O)cc1C,i,1.53
CCSc1nnc(NC(=O)c2ccc(C)cc2)s1,i,0.02
CCc1nnnn1-c1ccc([N+](=O)[O-])cc1C,i,1.26
Cc1nc(N2CCN(c3ccccc3)CC2)[nH]c(=O)c1C,i,1.69
CCOC(=O)C1CCN(C(=O)c2ccc(OCC(=O)Nc3ccc(OCC)cc3)c(OC)c2)CC1,i,-0.68
O=C(NCc1cccs1)c1ccc(S(=O)(=O)N2CCOCC2)cc1,i,-1.05
COc1ccc(NC(=S)N2CCC(C(=O)c3ccc(C)cc3)CC2)cc1,i,-0.88
N#C/C(=C\c1c(N2CCN(Cc3ccccc3)CC2)nc2ccccn2c1=O)S(=O)(=O)c1ccccc1,i,-0.18
Cc1ccc(CCNC(=O)c2nnc(CS(=O)(=O)c3ccccc3)o2)cc1,i,-0.46
COc1ccc(C(=O)Nc2ccc(F)cc2F)cc1OC,i,-0.89
C/C(=N\O)C(C)Oc1ccc(Cl)cc1 (configuration not stated),i,0.94
O=C(Nc1ccc(Br)cc1)C1CCN(c2cnccn2)CC1,i,-0.66
Cc1cccc(NC(=O)c2cccc(S(=O)(=O)N3CCCC3)c2)n1,i,1.24
COc1ccc(-n2ccnc(SCC(=O)NC3CCCC3)c2=O)cc1,i,-0.06
CCN(c1ccccc1)S(=O)(=O)c1cccc(C(=O)N(C)CCOc2ccccc2)c1,i,-1.27
CCCCc1n[nH]c2c1C(=O)CC(C)(C)C2,i,0.62
CCc1n(CC(O)COC2CCCCC2)c2ccccc2[n+]1C (configuration not stated),i,-0.56
COc1ccc(NC(=O)NNC(=O)c2ccc(-c3ccccc3)cc2)c(OC)c1,i,0.03
Clc1ccc2nc(-c3ccc4c(c3)OCO4)cn2c1,i,-1.05
CCN1C(=O)[C@@H]2[C@@H](c3ccc(-c4ccc(C(C)=O)cc4)cc3)N3CCCC[C@@]3(C(=O)OC)[C@@H]2C1=O,i,-0.03
CCCCCN(CCCCC)C(=O)C(CCC(=O)O)NC(=O)c1ccc(Cl)c(Cl)c1 (configuration not stated),i,-0.52
O=C1OC(N2CCN(C(=O)C3CCCO3)CC2)c2ccccc21 (configuration not stated),i,0.65
O=C(/C=C/c1ccc(OC2CSC2)cc1)c1ccccc1,i,-0.52
COc1cccc(-c2nc(CS(=O)(=O)CC(=O)NC3CC3)c(C)o2)c1,i,-1.49
Cc1oc(C(C)(C)C)cc1C(=O)N1CCN(C(c2ccccc2)c2ccccc2)CC1,i,-1.25
Cc1ccc(NNC(=O)c2cc(C(C)(C)C)nn2Cc2ccccc2)cc1,i,1.29
# Further records
SMILES,KCNQ2 inh,KCNQ2 inh baseline
COc1ccc(C2CC(c3ccccc3)=NN2C(=O)COC(=O)c2nc3nc(C)cc(C)n3n2)cc1 (configuration not stated),i,0.26
COC(=O)c1sccc1NC(=O)CSCCc1ccccn1,i,-0.08
COc1ccc(-c2csc3ncn(-c4ccc(C)cc4)c(=O)c23)cc1OC,i,0.54
Cc1ccnc(SCc2cn3c(C)cccc3n2)n1,i,-1.49
CCN(CC)CCNC1=NCCn2c1cc1cc(OC)ccc12,i,1.95
COc1ccc(NC(=O)/C=C/c2ccc(C)o2)cc1S(=O)(=O)N1CCOCC1,i,0.56
CCOC(=O)COc1ccc(S(=O)(=O)NC2CC2)cc1,i,0.84
Cc1ccc(C(CNS(=O)(=O)c2ccccc2)N2CCN(C)CC2)cc1 (configuration not stated),i,0.35
Cc1ccc(S(=O)(=O)ON2C(=O)c3cccc4cccc(c34)C2=O)cc1,i,1.42
Cc1ccnn1CC(=O)N/N=C/c1cn[nH]c1-c1ccccc1,i,-1.44
COC(=O)CCC(=O)OC1(C)C(=O)C2=CN(c3ccc(OC)cc3)C(c3ccc(OC)cc3)=CC2=C(Br)C1=O (configuration not stated),i,0.05
Cc1ccc(-c2ccc(/C=N/N3C(=O)C4C5C=CC(C6CC56)C4C3=O)o2)c([N+](=O)[O-])c1 (configuration not stated),i,0.41
CCOc1ccc(NC(=O)CCNS(=O)(=O)c2cccs2)cc1,i,1.27
CCOC(=O)Cn1c2ccc(OC)cc2c2nc3ccccc3nc21,i,6.84
O=C(Cc1ccc(Cl)cc1)Nc1ccccc1N1CCN(C(=O)c2ccccc2)CC1,i,0.28
COc1cc2cc(C(c3nnnn3Cc3ccc(F)cc3)N3CCCCCC3)c(=O)[nH]c2cc1OC (configuration not stated),-7.71*,-0.23*
CCCCC1(C)OC(=O)C(=Cc2ccc(N(C)C)cc2)C(=O)O1 (configuration not stated),i,-0.1
CCOc1ccc(NC(=O)NC2CCCCCCC2)cc1,i,0.01
CCC(=O)Nc1cccc(NC(=S)NC(=O)c2ccc(Cl)cc2Cl)c1,i,1.11
CCOc1cc(/C=N/NC(N)=O)cc(Br)c1OCC(=O)Nc1ccccc1C,i,-2.37
O=c1/c(=C/c2ccc(CNS(=O)(=O)c3ccccc3)o2)sc2n1CCN=2,i,1.55
COc1ccc(-n2c(SCC(=O)Nc3ccc(C)cc3)nc(O)c(Cc3ccccc3)c2=O)cc1,i,-0.65
COc1ccc(Cl)cc1C(=O)Nc1ccccc1N1CCCCC1,-7.53*,-1.29*
Cc1ccc(C(=O)OC2CCN(c3ccc([N+](=O)[O-])cc3)CC2)cc1,i,-0.76
Cc1ccc(NC(=O)N2CCCC2C(=O)NCCc2ccccc2)cc1 (configuration not stated),i,0.04
O=C(Nc1ccc(N2CCOCC2)cc1)c1cccc(S(=O)(=O)N2CCCCC2)c1,i,-0.1
Cc1cc(OC(C)C(=O)NC2CC(C)(C)NC(C)(C)C2)c2c(C)cc(=O)oc2c1 (configuration not stated),i,1.04
COC(=O)c1cnn2c(C)c(Cc3cccc(F)c3)c(C)nc12,i,-1.24
CC(CNC(=O)c1ccccc1Cl)c1ccccc1 (configuration not stated),i,-0.88

# Rewritten with bars between the fields: 2 of the compounds above.
Compound | KCNQ2 inh | KCNQ2 inh baseline
O=C(Cc1ccc(Cl)cc1)Nc1ccccc1N1CCN(C(=O)c2ccccc2)CC1 | i | 0.28
COc1cc2cc(C(c3nnnn3Cc3ccc(F)cc3)N3CCCCCC3)c(=O)[nH]c2cc1OC (configuration not stated) | -7.71* | -0.23*

# Grouped by structure, those above containing a nitro group on carbon.
SMILES,KCNQ2 inh,KCNQ2 inh baseline
CCC(=O)NC(=S)NNC(=O)c1ccc([N+](=O)[O-])cc1,i,1.11
CCOC(=O)N1CCN(C(=O)COc2ccccc2[N+](=O)[O-])CC1,i,0.24
O=C(Nc1nc(C2C3CC4CC(C3)CC2C4)cs1)c1cc2cc([N+](=O)[O-])ccc2oc1=O (configuration not stated),i,1.24
CCc1nnnn1-c1ccc([N+](=O)[O-])cc1C,i,1.26
Cc1ccc(-c2ccc(/C=N/N3C(=O)C4C5C=CC(C6CC56)C4C3=O)o2)c([N+](=O)[O-])c1 (configuration not stated),i,0.41
Cc1ccc(C(=O)OC2CCN(c3ccc([N+](=O)[O-])cc3)CC2)cc1,i,-0.76
